LASV entry inh = qHTS for Inhibitors of binding or entry into cells for Lassa Virus; Lassa virus pseudotype entry inhibition, cell reporter; control for the full effect not named in the record; Potency, µM (series often up to 37.9 µM), inactives show at the highest dose activity change, negative = inhibition, usual class: inhibitors; hit rate 1.2% among 300,000; AID 540256, 2011; active means well fitted inhibition curve with a large enough effect; inconclusive means small, poorly fitted or top-dose-only effect, or effect the other way; inactive means flat fitted curve, though single readings scatter; tested in HEK293 cells; also: % is scaled to controls: 0 for no effect and ±100 for the full control effect; nearly all actives have a fitted effect of over 50% in size; luciferase read-out
NS1 inh = qHTS Assay for Inhibitors of Influenza NS1 Protein Function; Potency, µM (titrated, usually from 46.1 µM), for inactives: top-dose activity, positive = more growth; AID 2326, 2010; S. cerevisiae slowed by influenza A NS1, growth recovery by OD600; hit rate 0.4% among 270,000; active means well fitted rising curve with a large enough effect; inconclusive means small, poorly fitted or top-dose-only effect; inactive means no such curve, though single readings can be large or run the other way; also: nearly all actives have a fitted effect of over 50% in size
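Compounds were scored for reversing the slow growth caused by influenza A NS1 in S. cerevisiae, measured by optical density at 600 nm. Assay medium contained 2% galactose at pH 6.0; NS1-free yeast of the same strain were the positive control.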
2A StopGo = High Throughput Screening for Foot and Mouth Disease Virus Antivirals. hit rate 1.2% among 410,000. human cells with a luciferase reporter of 2A StopGo recoding; control for the full effect not named in the record. AID 1159524, 2015. Potency, µM (series often up to 57.9 µM), for inactives: at the top dose signal change, negative = less light; active = well fitted falling curve with a large enough effect; inconclusive = small, poorly fitted or top-dose-only effect; inactive = no such curve, though single readings can be large or run the other way; tested in HEK293T cells; also: % is scaled to controls: 0 for no effect and ±100 for the full control effect; nearly all actives have a fitted effect of over 45% in size; luciferase light after 4 h
Cruzain noTriton = qHTS Assay for Promiscuous and Specific Inhibitors of Cruzain (without detergent); purified cruzain, Z-FR-AMC fluorescence, no detergent; Potency, µM, for inactives: max response, negative = inhibition, most hits filed as inhibitors; hit rate 2.3% among 200,000; AID 1476, 2009;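 also: plate controls were enzyme without inhibitor for no effect and buffer without enzyme for full effect; nearly all actives have a fitted effect of over 40% in size; top concentration of the series not given in the record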
Target sequence (P25779 123-467 limits assumed): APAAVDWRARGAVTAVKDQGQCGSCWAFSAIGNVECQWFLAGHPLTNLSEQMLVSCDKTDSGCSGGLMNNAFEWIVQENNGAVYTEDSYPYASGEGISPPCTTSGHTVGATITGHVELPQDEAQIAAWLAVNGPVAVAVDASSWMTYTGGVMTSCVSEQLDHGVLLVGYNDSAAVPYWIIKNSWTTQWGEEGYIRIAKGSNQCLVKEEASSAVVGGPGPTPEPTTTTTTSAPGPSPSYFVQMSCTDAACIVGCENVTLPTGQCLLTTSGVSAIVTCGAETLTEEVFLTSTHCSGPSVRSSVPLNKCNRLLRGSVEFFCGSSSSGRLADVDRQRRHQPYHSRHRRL
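Purified cruzain at 1.5 nM, pre-incubated 15 min with compound at room temperature in 100 mM sodium acetate pH 5.5, 5 mM DTT, 0.00005% Triton X-100. Reaction started with 2 uM Z-FR-AMC; AMC fluorescence increase over 60 s gives rate.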
SARS PLpro yeast = qHTS of Yeast-based Assay for SARS-CoV PLP | S. cerevisiae expressing SARS-CoV PLpro, growth rescue; control for the full effect not named in the record | Potency, µM (doses to about 32.9 µM), without a hit: top-dose activity, positive = growth rescue | hit rate 0.19% among 330,000 | AID 485353, 2010; active means well fitted rising curve with a large enough effect; inconclusive means small, poorly fitted or top-dose-only effect; inactive means no such curve, though single readings can be large or run the other way; also: 0% is about no effect; nearly all actives have a fitted effect of over 55% in size; growth read by luminescence after 48 h
RE007 growth inh = qHTS Assay for Inhibitors of the HIV-1 protein Vpr. hit rate 0.21% among 360,000. AID 651644, 2012. S. pombe RE007 Vpr strain, BacTiter-Glo ATP luminescence, 24 h; control for the full effect not named in the record. Potency, µM (series often up to 92.2 µM), without a hit: top-dose activity change, negative = less growth; active = well fitted falling curve with a large enough effect; inconclusive = small, poorly fitted or top-dose-only effect; inactive = no such curve, though single readings can be large or run the other way;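 also: % is scaled to controls: 0 for no effect and ±100 for the full control effect; nearly all actives have a fitted effect of over 50% in size; the assay follows cell death caused by Vpr and the record does not say whether a fall means rescue or toxicity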
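Fission yeast strain RE007, carrying one chromosomally integrated HIV-1 vpr copy, was seeded at OD 0.01 in PMG+AL medium with 23 nL pinned compound. After 24 h at 30 °C and 99% humidity, viability was read by BacTiter-Glo luminescence.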
MARV entry inh = qHTS for inhibitors of binding or entry into cells for Marburg Virus; Marburg virus pseudotyped entry inhibition, cell reporter; control for the full effect not named in the record; about a third of the inactives were read at about 46 µM; Potency, µM (top dose mostly 37.8 µM), for the others: at the highest dose activity change, negative = inhibition, actives largely listed as inhibitors; hit rate 1.8% among 300,000; AID 540276, 2011; active = well fitted inhibition curve with a large enough effect; inconclusive = small, poorly fitted or top-dose-only effect, or effect the other way; inactive = flat fitted curve, though single readings scatter; tested in HEK293 cells; about a fifth of its hits are not listed in these tables; also: % is scaled to controls: 0 for no effect and ±100 for the full control effect; luciferase read-out
Cruzain inh Det = qHTS Assay for Promiscuous and Specific Inhibitors of Cruzain (with detergent); hit rate 0.43% among 200,000; Potency, µM, without a hit: max response, negative = inhibition, most hits filed as inhibitors; Cruzipain (Trypanosoma cruzi), P25779; purified cruzain, Z-FR-AMC fluorescence, 0.01% Triton;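 also: plate controls were neutral wells for no effect and buffer without enzyme for full effect; nearly all actives have a fitted effect of over 40% in size; top concentration of the series not given in the record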
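Detergent-containing run (0.01% Triton X-100) in acetate buffer pH 5.5 with 5 mM DTT: enzyme at 1.5 nM final, 15 min compound preincubation at room temperature, then 2 uM Z-FR-AMC substrate. Activity taken as 60 s fluorescence increase at 360/450 nm.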
An asterisk follows results filed as active; ? = inconclusive; . = no result given; & = joins results of further samples; [ ] = dose if it differs, or a comment. Unless noted, calls follow the shape of the dose curve; as a rule, active = well fitted curve in the direction sought with a large enough effect; inconclusive = small, poorly fitted or top-dose-only effect, or another doubt; inactive = no such curve, though single readings can be large; an effect the other way counts as inactive or inconclusive. Potency is read from the fitted curve at half-maximal effect.

SMILES | LASV entry inh | NS1 inh | 2A StopGo | Cruzain noTriton | SARS PLpro yeast | RE007 growth inh | MARV entry inh | Cruzain inh Det
Cc1ccc(N2C(=O)C(CC(=O)Nc3ccc(F)cc3)N(CCC3=CCCCC3)C2=O)cc1 (stereo not given) | ? | . | 2% | -7% | . | . | ? | -8.2%
CC(=O)COc1cccc2ccc(/C=C/c3ccc(Br)s3)nc12 | . | -55% | -3% | . | -10% | -7% | . | .
CCc1nnc(NS(=O)(=O)c2ccc(N/C=C\C(=O)c3ccc(F)cc3)cc2)s1 | . | 7% | 3% | . | 1% | 11% | . | .
O=C(c1cccc(S(=O)(=O)NCc2ccccc2)c1)N1CCN(c2ccc(F)cc2)CC1 | ? | . | ? | . | -2% | 0% | ? | .
COC(=O)c1ccccc1N=Nc1c(C)n[nH]c1C | . | -3% | -6% | . | -2% | -7% | . | .
COc1ccc(N=Cc2ccc(CNS(=O)(=O)c3ccc(Cl)cc3)o2)cc1 | 0% | -4% | -8% | -2% | -8% | -15% | ? | 0.0%
COc1ccccc1CNC(=O)CCc1c(C)nc2cc(-c3ccccc3OC)nn2c1C | -22%&-20%[46.1 µM] | -3% | -26%&-3% | ? | 2% | 8% | -11%&10%[46.1 µM] | -3.1%
CCOC(=O)c1c(C)[nH]c(C(=O)NNC(=O)c2ccc(C(C)(C)C)cc2)c1C | 2% | ? | -8% | ? | 14% | -17% | -1% | -4.9%
O=C(Nc1ccccc1C(=O)NCCCN1CCOCC1)c1cccc([N+](=O)[O-])c1 | ? | 4% | -17% | . | 0% | 0% | 4% | .
CCN(C(=O)CSc1ccc2ccccc2c1)C1CCS(=O)(=O)C1 (stereo not given) | -20% | -5% | 0% | 13% | -16% | -21% | 6% | -2.6%

Full records, quoted from the list. Order of values: LASV entry inh | NS1 inh | 2A StopGo | Cruzain noTriton | SARS PLpro yeast | RE007 growth inh | MARV entry inh | Cruzain inh Det
COc1ccc(N=Cc2ccc(CNS(=O)(=O)c3ccc(Cl)cc3)o2)cc1 is listed as 0% | -4% | -8% | -2% | -8% | -15% | ? | 0.0%
O=C(Nc1ccccc1C(=O)NCCCN1CCOCC1)c1cccc([N+](=O)[O-])c1 is listed as ? | 4% | -17% | . | 0% | 0% | 4% | .
CC(=O)COc1cccc2ccc(/C=C/c3ccc(Br)s3)nc12 is listed as . | -55% | -3% | . | -10% | -7% | . | .
COc1ccccc1CNC(=O)CCc1c(C)nc2cc(-c3ccccc3OC)nn2c1C is listed as -22%&-20%[46.1 µM] | -3% | -26%&-3% | ? | 2% | 8% | -11%&10%[46.1 µM] | -3.1%
CCc1nnc(NS(=O)(=O)c2ccc(N/C=C\C(=O)c3ccc(F)cc3)cc2)s1 is listed as . | 7% | 3% | . | 1% | 11% | . | .

Other results
SMILES | LASV entry inh | NS1 inh | 2A StopGo | Cruzain noTriton | SARS PLpro yeast | RE007 growth inh | MARV entry inh | Cruzain inh Det
O=C(NC1CCN(S(=O)(=O)c2ccc(F)cc2)CC1)c1ccco1 | ? | 1% | -21% | . | 1% | -2% | 1%[46.1 µM] | .
Cc1ccc(S(=O)(=O)CCC(=O)OCc2nnc(-c3ccc([N+](=O)[O-])cc3)o2)cc1 | 1% | . | -16% | . | . | -14% | -1% | .
Cc1cccc(OCC(=O)Nc2cc(NC(=O)COc3cccc(C)c3C)cc(C(=O)O)c2)c1C | . | 13% | 60% | . | 5% | -5% | . | .
CC(=O)c1cc2c(cc1C)CCCC2(C)C | 10%[46.1 µM] | . | -13% | . | . | -3% | -2%[46.1 µM] | .
Cc1cccc(NC(=O)NNC(=O)c2cc3occc3[nH]2)c1C | . | 2% | 10% | . | -3% | -7% | . | .
Cc1cc(Cl)ccc1NC(=S)N1CCN(C(=O)C2CCCO2)CC1 (stereo not given) | -13% | 28% | 2% | 20% | 16% | -1% | ? | 0.4%
Cc1cc(=O)[nH]c2ccc(S(=O)(=O)NC3CCCCC3)cc12 | . | 8% | 84%[activator] | . | 4% | -1% | . | .
O=C(CN1CCCCCC1)Nc1ccc(F)c(F)c1 | -2% | 4% | -2% | 1% | 13% | -12% | -22% | 1.4%
C=CCNc1nc(N2CCOCC2)c(C#N)c2c1CN(C)CC2 | -4% | -7% | -22% | -5% | -3% | -5% | ? | -2.3%
CCOc1ccc(C2c3[nH]c4ccccc4c3CCN2C(=O)CSCc2ccc(F)cc2)cc1 (stereo not given) | ? | . | -10% | 10µM* | . | . | . | 2.2%
Cc1ccc(NC(=O)C2CCC(CNS(=O)(=O)c3ccc4c(c3)CCCC(=O)N4)CC2)cc1F (stereo not given) | 3%[46.1 µM] | . | ? | 0% | . | . | . | -2.1%
CCN1C(=O)c2cccc3c(NC(=O)c4ccc(S(=O)(=O)N5CCOCC5)cc4)ccc1c23 | 2% | -3% | ? | ? | 3% | 15% | 9%&2% | -3.4%
COC(=O)c1cc2c(s1)-c1cc(F)ccc1OC2 | ? | -8% | 31%[activator] | . | 1% | -19% | 1% | .
CCC(C)c1ccc2oc(-c3ccc(NC(=O)c4ncn[nH]4)cc3)nc2c1 (stereo not given) | -20%[14.3 µM] | -7% | 42%[activator] | 4µM* | -7% | 15% | ? | -10%
COC(OC)C1(C)C(C#N)=C(N)Oc2c1c(=O)oc1ccccc21 (stereo not given) | 3%[46.1 µM] | -1% | 7% | . | 1% | 4% | -12%[46.1 µM] | .
CCOC(=O)c1sc(NC(=O)CNCc2ccccn2)c(C(=O)OCC)c1C | ? | 2% | ? | . | -1% | -16% | ? | .
C=C(C(C)=O)C(O)c1ccc2ccccc2c1 (stereo not given) | ? | . | . | 6% | . | . | ? | 4.8%
Cc1cc(C(=O)OCC(=O)NC2CCS(=O)(=O)C2)c2ccccc2n1 (stereo not given) | ? | 9% | -6% | . | 1% | 76% | 3%[46.1 µM] | .
COc1ccc(Br)cc1/C=C/C(=O)NC(=S)Nc1ccc(CN2CCOCC2)cc1 | . | 3% | ? | . | -18% | 2% | . | .
COc1ccc(-n2c(O)c(/C=C/C=Nc3ccccc3)c(=O)[nH]c2=O)cc1 | 0% | 15% | -22% | -22% | 10% | -10% | ? | -12%
CCOc1ccc(C(C)NC(=O)Cc2ccccc2F)cc1OCC (stereo not given) | . | . | 7% | . | -8% | -7% | -1%[46.1 µM] | .
COc1cccc(Oc2ccc(OC)cc2C(=O)O)c1 | ? | 2% | 5% | . | 1% | -9% | 0%[46.1 µM] | .
COc1ccc(C2=NC(=O)NC2c2ccc(OC)cc2)cc1 (stereo not given) | . | -3% | -18% | . | 0% | 12% | 0% | .
Cc1ccc(OCCNCC(O)COc2ccccc2)cc1 (stereo not given) | . | 5% | -19% | . | -1% | -17% | . | .
CN1CCN(Cc2c(O)ccc3cc(Br)ccc23)CC1 | -14%[46.1 µM] | . | 0% | . | -5% | ? | ? | .
Cc1occc1C(=O)N/N=C/c1ccc2c(c1)OCO2 | ? | -59% | -47% | . | -15% | ? | ? | .
CCSc1ccccc1C(=O)Nc1cc(OC)c(OC)c(OC)c1 | 8% | 1% | -12% | . | 0% | -16% | 9%[46.1 µM] | .
COc1ccc(C(=O)C2CN(C)CC2c2ccc(Cl)cc2)cc1 (stereo not given) | . | 0% | -2% | . | 0% | -12% | . | .
O=[N+]([O-])c1ccccc1Sc1nccn1Cc1ccccc1 | 7% | -15% | -13% | 15% | 23% | 9% | 1% | -2.5%
CC(C)CC(=O)Nc1cc2c3c(c1)C(C)C(=O)N3CCC2 (stereo not given) | . | 0% | -12% | . | -2% | 15% | . | .
COC(=O)C1(NC(=O)CNC(=O)OCc2ccccc2)CCCC1 | -5% | . | -8% | . | . | -13% | -4% | .
CCOc1cc(-c2nc3cc(C)ccn3c2NCC2CCCO2)ccc1O (stereo not given) | -5% | 1% | -6% | 12% | 0% | 3% | -23% | -8.0%
CCN(C(=O)Cn1nc(C)c([N+](=O)[O-])c1C)c1c(N)n(Cc2ccccc2)c(=O)[nH]c1=O | 22% | . | -24% | . | -4% | 6% | -18% | .
COc1ccc(OC)c2c(C)cc(NCCN3CCOCC3)nc12 | -2% | 5% | . | -2% | -3% | -9% | -12% | 1.0%
CCN(CC)S(=O)(=O)c1cccc(C(=O)/C=C2/N(C)c3ccccc3C2(C)C)c1 | ? | 1% | ? | -13% | -11% | 7% | ? | -7.6%
CCOc1ccc(NC(=O)Cn2c(=O)cc(C)c3c(C)nn(-c4cccc(Cl)c4C)c32)cc1 | 0%[46.1 µM] | . | -10% | 4% | . | . | . | -1.0%
CCc1ccccc1NC(=O)C1CCCN(S(=O)(=O)c2ccc3[nH]c(=O)ccc3c2)C1 (stereo not given) | 3%[46.1 µM] | . | -5% | 6% | . | . | . | -1.4%
N#Cc1c(-c2ccccc2)c(-c2ccccc2)nn(CC(=O)NNC(=O)Nc2ccc(Cl)cc2)c1=O | -27% | 12% | -4% | . | 1% | 3% | ? | .
CCOC(=O)CN1C(=O)N[C@@H](c2ccc(Br)cc2)C(C(=O)OC)=C1C | . | -2% | -16% | . | 0% | -2% | -10%[14.2 µM] | .
Cc1cccc(C(=O)NC(=S)Nc2ccc3[nH]c(=O)[nH]c3c2)c1 | -3% | 2% | -14% | . | -1% | 5% | 0%[46.1 µM] | .
